Screening data deposited in PubChem BioAssay by several laboratories.
Ecoli growth: E. coli growth inhibition, primary screen, OD600. OD600 absorbance (test concentration not listed). 330,000 compounds, 0.21% hits. AID 1053175, 2014. Escherichia coli growth, 23 h; hits give low values;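 active = OD600 absorbance below the run mean of sample wells minus 3.6 SD, in any replicate, cut at about 0.56 in these data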;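 note: stock transfer was 300 nL into about 60 µL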
UCH37 inh: inhibitors of human UCH37 deubiquitinase, primary screen, biochemical, Ub-AMC cleavage, fluorescence | inhibition, % (concentration not given with the values) | 330,000 compounds, 0.33% hits | Ubiquitin carboxyl-terminal hydrolase isozyme L5 (Homo sapiens), Q9Y5K5 | purified proteasome/UCH37;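 active = mean of two replicates above 20%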;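 note: 0% = compound-free wells with enzyme and 100% = wells lacking proteasome; stock transfer was 100 nL into about 20 µL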
Target sequence (Q9Y5K5 whole entry, looked up): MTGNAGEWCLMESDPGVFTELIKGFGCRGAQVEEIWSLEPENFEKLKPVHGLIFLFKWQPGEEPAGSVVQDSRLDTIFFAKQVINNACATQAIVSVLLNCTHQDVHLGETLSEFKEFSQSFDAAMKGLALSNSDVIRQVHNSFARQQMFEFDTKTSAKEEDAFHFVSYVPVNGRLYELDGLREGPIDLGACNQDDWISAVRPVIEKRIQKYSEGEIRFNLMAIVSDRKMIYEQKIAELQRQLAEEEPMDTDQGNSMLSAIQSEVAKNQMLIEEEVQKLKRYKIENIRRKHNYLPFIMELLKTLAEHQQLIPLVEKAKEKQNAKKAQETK
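Schedule: 30 min plus 25 min, room temperature / Material: human UCH37 within purified proteasomes / Technique: AMC fluorescence intensity at 355/460 nm / Buffer or medium: pH 7.4 Tris-HCl (50 mM) with ovalbumin, ATP-MgCl2, DTT / Controls: wells without proteasome as full block, compound-free enzyme plus substrate as uninhibited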
B2AR ag: beta2AR agonists driving receptor internalization, primary screen, cell-based, FAP fluorogen, flow cytometry; Beta-2 adrenergic receptor (Homo sapiens), P07550; Am2.2-beta2AR cells; reference of the scale not given here; response, % (concentration not given with the values); 340,000 compounds, 0.43% hits; AID 504454, 2011;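 active = response above a set limit, near 3 SD of response in nonfluorescent compounds, cut at about 42% in these data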;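 note: stock transfer was 100 nL into about 11 µL; a reference agonist was the positive control; negative values mostly stem from fluorescent compounds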
Target sequence (P07550 whole entry, looked up): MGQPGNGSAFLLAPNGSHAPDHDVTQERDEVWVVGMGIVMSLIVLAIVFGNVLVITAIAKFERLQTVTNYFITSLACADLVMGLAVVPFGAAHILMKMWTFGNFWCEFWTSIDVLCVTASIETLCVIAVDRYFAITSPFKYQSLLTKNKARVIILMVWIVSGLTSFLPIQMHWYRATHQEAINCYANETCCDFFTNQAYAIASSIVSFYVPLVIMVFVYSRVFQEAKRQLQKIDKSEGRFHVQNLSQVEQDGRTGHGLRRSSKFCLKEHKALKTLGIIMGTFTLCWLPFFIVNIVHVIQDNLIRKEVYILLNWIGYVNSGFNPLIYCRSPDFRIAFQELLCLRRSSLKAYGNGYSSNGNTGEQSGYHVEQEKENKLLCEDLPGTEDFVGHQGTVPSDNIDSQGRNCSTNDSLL
HNF4A DNA FP: change in binding of human HNF4A to DNA, primary screen, biochemical, fluorescence polarization, FITC-DNA. Hepatocyte nuclear factor 4-alpha (Homo sapiens), P41235. 1 h. activity change, % at 10 µM. 360,000 compounds, 0.3% hits; in the data active = activity change above about 30%, passing the limit was not always enough;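 note: controls were the assay level and a saturating level of protein; the project sought stronger binding though the title names inhibitors; some compounds called inactive have numbers as strong as hits; positive values seem to mean higher polarization but the record does not say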
A1 inh: caspase 3/7 activation in MEF A1-2A-BIM cells, primary screen, A1 inhibitor project, cell-based, luminescence, HTS; 330,000 compounds, 0.066% hits; caspase activation, % (concentration not given with the values); Caspase-Glo 3/7 luminescence, 3 h; percent of clofoctol response, vehicle zero;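 active = over half of replicate activation scores above 10%, or exactly half above 10 with the replicate mean above 10; inconclusive = replicate mean below 10 yet half the replicates above 10; inactive = over half of replicates below 10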;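 note: wells of about 30 µL received 50 nL stock; many hits fall short of the cut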
Vif TR-FRET: inhibitors of Vif binding to APOBEC3G peptide, primary screen, biochemical, TR-FRET, GST-Vif 1-94, biotin-A3G peptide, dose response retest (AID 1117319); TR-FRET GST-Vif / biotin-A3G peptide binding; higher % means a stronger effect; test concentration not given here; strong numbers were not always called active; 260,000 compounds, 0.57% hits; Virion infectivity factor (Human immunodeficiency virus type 1 group M subtype B (isolate …; inhibition, %, or IC50 in µM where a hit was titrated;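 active = above the screen mean plus three standard deviations and confirmed in dose response; inconclusive = results disagree or hit not tested in dose response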;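 note: Vif residues 1-94 fused to GST binding biotinylated APOBEC3G peptide 110-148; 0% = full assay without inhibitor and 100% = GST in place of GST-Vif; retest series ran down from 100 µM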
LANA-H2B inh: blockers of LANA interaction with H2A/H2B – biochemical, FP readout, HTS, primary screen | AID 2629, 2010 | Protein LANA1 (Human herpesvirus 8 type P (isolate GK18)), Q9QR71 | 320,000 compounds, 0.6% hits | inhibition, % (concentration not given with the values) | cell-free LANA-H2A/H2B peptide, fluorescence polarization; in the data active = inhibition mostly above about 10%, no sharp cut-off; inactive = mostly below about 6.7%;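 note: stock transfer was 7.5 nL into about 10 µL; 0% = median of vehicle wells and 100% = median of positive control wells; one replicate is shown; the record names a cut of 25% in any replicate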
Starred values were filed as active, the others as inactive.

O=C(Nc1ccc(-c2nc3ccccc3o2)cc1)C1CCCO1 (stereo not drawn) was read as Ecoli growth 0.74, UCH37 inh -30, B2AR ag -14, HNF4A DNA FP 5.5, A1 inh -14, Vif TR-FRET 0% and LANA-H2B inh 5.2.
COc1ccc(NC2CCCN(C(=O)c3csc(C(C)C)n3)C2)cc1 (stereo not drawn) was read as Ecoli growth 0.69, UCH37 inh 5.8, B2AR ag -4, HNF4A DNA FP -3.2, A1 inh 1.4 and LANA-H2B inh 0.3.
Screening Cc1ccc(NC(=O)CCNC(=O)c2ccccc2Cl)cc1S(=O)(=O)N1CCCCCC1 returned Ecoli growth 0.68, UCH37 inh -0.4, B2AR ag 12, HNF4A DNA FP 3.6, A1 inh 0.4, Vif TR-FRET -3% and LANA-H2B inh -1.3.
Screening CC(C)C(=O)NC(=S)NCC(=O)c1ccccc1 returned Ecoli growth 0.69, UCH37 inh 3.3, B2AR ag -2, HNF4A DNA FP -4.0, A1 inh -0.8, Vif TR-FRET 0% and LANA-H2B inh -0.5.
Screening Cc1cccc(N2C(=O)C(Cc3ccccc3)NC2=S)c1 (stereo not drawn) returned Ecoli growth 0.72, UCH37 inh 1.8, B2AR ag -4, HNF4A DNA FP 0.1, A1 inh 2.0, Vif TR-FRET 16% and LANA-H2B inh 0.3.
Screening CC(=O)Nc1c(-c2ccccc2Cl)c(=O)c2ccccc2n1C returned Ecoli growth 0.7, UCH37 inh 7.0, B2AR ag -4, HNF4A DNA FP -0.4, A1 inh 0.0, Vif TR-FRET 5% and LANA-H2B inh 5.2.
Screening CC(=O)Nn1c(-c2ccccc2)cc2ccccc21 returned Ecoli growth 0.75, UCH37 inh 3.5, B2AR ag -2, HNF4A DNA FP -4.1, A1 inh 0.4, Vif TR-FRET inconclusive and LANA-H2B inh -2.3.
For NC(=O)C1CCCN(Cc2ccc3ccccc3c2)C1 (stereo not drawn) the results were Ecoli growth 0.67, UCH37 inh 2.3, B2AR ag -7, HNF4A DNA FP 2.1, A1 inh -1.2 and LANA-H2B inh 3.9.
Screening CC1(c2ccc([N+](=O)[O-])c(CS(=O)(=O)c3ccccc3)c2)OCCO1 returned Ecoli growth 0.65, UCH37 inh 4.6, B2AR ag 4, HNF4A DNA FP 2.3, A1 inh 0.2, Vif TR-FRET -9% and LANA-H2B inh -1.8.
Screening COc1ccc(CC(=O)Nc2nc(C)cs2)cc1OC returned Ecoli growth 0.69, UCH37 inh 1.2, B2AR ag -10, HNF4A DNA FP -0.5, A1 inh 1.3, Vif TR-FRET 3% and LANA-H2B inh 7.2.
Screening Cc1cc(N/C=C(\C#N)S(=O)(=O)c2ccc(Cl)cc2)nc(C)n1 returned Ecoli growth 0.69, UCH37 inh 4.3, B2AR ag -7, HNF4A DNA FP 3.1, A1 inh -0.5, Vif TR-FRET 15% and LANA-H2B inh 1.1.
Screening COCCN(C(=O)C1CCCC1)c1c(N)n(Cc2ccccc2)c(=O)[nH]c1=O returned Ecoli growth 0.68, UCH37 inh 1.1, B2AR ag -4, HNF4A DNA FP -2.6, A1 inh 0.5, Vif TR-FRET 3% and LANA-H2B inh 0.1.
Screening CSc1cccc(NC(=O)c2cnccn2)c1 returned Ecoli growth 0.74, UCH37 inh 0.6, B2AR ag -9, HNF4A DNA FP -0.7, A1 inh -2.9, Vif TR-FRET 3% and LANA-H2B inh 3.6.
C/C(=N\NC(=O)C12CCC(C)(C(=O)O1)C2(C)C)c1ccccc1O (stereo not drawn) was read as B2AR ag -5, HNF4A DNA FP 2.4, A1 inh 0.1, Vif TR-FRET 1% and LANA-H2B inh 0.5.
COC(=O)c1cccc(NC(=O)CCN2C(=O)C3CC=CCC3C2=O)c1 (stereo not drawn) was read as Ecoli growth 0.66, UCH37 inh 0.9, B2AR ag 0, HNF4A DNA FP -1.1, A1 inh 0.8, Vif TR-FRET -17% and LANA-H2B inh -3.0.
Screening Cn1cc(/C=C/C(=O)N2CCCC(C(=O)c3cccc4ccccc34)C2)cn1 (stereo not drawn) returned Ecoli growth 0.72, UCH37 inh 1.3, B2AR ag -3, HNF4A DNA FP 0.9 and Vif TR-FRET -7%.
COc1ccc(C(=O)N2N=C(c3cccs3)CC2c2ccccc2O)cc1 (stereo not drawn) was read as Ecoli growth 0.65, UCH37 inh -4.7, B2AR ag 5, HNF4A DNA FP 2.5, A1 inh -0.3 and LANA-H2B inh -8.8.
`COc1cc2sc3ccc(-c4ccc(N(C)C)nc4)cc3c(=O)c2cc1OC` gave Ecoli growth 0.72, UCH37 inh 1.5, A1 inh -14 and LANA-H2B inh -2.3.
`O=C(N/N=C/c1cccnc1)c1cc2c(ccc3ccccc32)o1` gave B2AR ag 0, HNF4A DNA FP 0.8, A1 inh -0.4, Vif TR-FRET 0% and LANA-H2B inh 0.8.
Cc1ccc(NC(=O)CCn2nnc3ccccc32)c(C)c1 was read as Ecoli growth 0.72, UCH37 inh 3.2, B2AR ag -4, HNF4A DNA FP 0.8, A1 inh -0.5, Vif TR-FRET 17% and LANA-H2B inh 6.9.
For CC(=O)Nc1ccc(Oc2nc(-c3ccccn3)nc3ccccc23)cc1 the results were Ecoli growth 0.7, UCH37 inh 3.5, B2AR ag -13, HNF4A DNA FP -5.9, A1 inh 0.9, Vif TR-FRET 5% and LANA-H2B inh 4.3.
Screening Cc1ccc(NC(=O)CNCC2CCCCC2)cc1S(=O)(=O)N(C)C returned Ecoli growth 0.66, UCH37 inh -0.5, B2AR ag -8, HNF4A DNA FP -3.3, A1 inh 0.1, Vif TR-FRET 2% and LANA-H2B inh -3.7.
Cc1ccc(C(=O)Nc2ccccc2N2CCOCC2)cc1S(=O)(=O)N1CCOCC1 was read as Ecoli growth 0.69, UCH37 inh 1.2, B2AR ag 7, HNF4A DNA FP 0.4, A1 inh 0.2 and LANA-H2B inh -4.5.
`COc1ccc2nc3sc(C(=O)NCc4cccs4)c(N)c3cc2c1` gave A1 inh -6.0, Vif TR-FRET -10% and LANA-H2B inh -2.2.
`COCCn1cnc2c1c(=O)n(CC(=O)c1ccc3c(c1)OCCO3)c(=O)n2Cc1ccccc1` gave Ecoli growth 0.69, UCH37 inh -0.8, B2AR ag 10, HNF4A DNA FP 4.1, A1 inh 0.7, Vif TR-FRET 17% and LANA-H2B inh -4.7.
`COc1cccc(CNC(=O)c2nnn(CC(=O)Nc3cc(C)ccc3C)c2N)c1` gave Ecoli growth 0.65, UCH37 inh 4.2, B2AR ag 3, HNF4A DNA FP 0.2, A1 inh -0.3, Vif TR-FRET 5% and LANA-H2B inh 12.
Screening O=C(NN1C(=O)c2ccccc2C1=O)c1ccncc1 returned Ecoli growth 0.72, UCH37 inh 4.5, B2AR ag 0, HNF4A DNA FP -1.8, A1 inh 0.0 and LANA-H2B inh -1.9.
Screening O=c1[nH]c2cc3c(cc2cc1CN(CC1CCCO1)S(=O)(=O)c1ccccc1)OCCO3 (stereo not drawn) returned Ecoli growth 0.73, UCH37 inh -80, B2AR ag -4, HNF4A DNA FP 1.3, A1 inh -0.1, Vif TR-FRET inconclusive and LANA-H2B inh -1.5.
For N=c1n(CCN2CCOCC2)c2ccccc2n1Cc1ccccc1Br the results were Ecoli growth 0.72, UCH37 inh 2.4, B2AR ag 2, HNF4A DNA FP 1.1, A1 inh -0.6, Vif TR-FRET 7% and LANA-H2B inh 3.6.
For Oc1c(C=Nc2ccc(Cl)cn2)sc2ccccc12 the results were Ecoli growth 0.65, UCH37 inh 5.4, B2AR ag 5, HNF4A DNA FP 0.0, A1 inh -8.3, Vif TR-FRET 6% and LANA-H2B inh 2.4.
`Cc1sc2nc(CSc3nc4ccccc4s3)[nH]c(=O)c2c1C` gave Ecoli growth 0.72, UCH37 inh 2.5, A1 inh 1.3 and LANA-H2B inh -1.7.
Screening O=C(COC(=O)c1ccc(Cl)nc1)NCc1cccs1 returned Ecoli growth 0.62, UCH37 inh 0.0, B2AR ag -1, HNF4A DNA FP -0.6, A1 inh 1.6, Vif TR-FRET -1% and LANA-H2B inh -0.3.
Screening O=S(=O)(O)c1cc(O)c2c(O)c(N=Nc3cc(Cl)ccc3O)c(S(=O)(=O)O)cc2c1 returned Ecoli growth 0.87, UCH37 inh 34*, B2AR ag 15, HNF4A DNA FP -51, A1 inh 0.3, Vif TR-FRET 78µM* and LANA-H2B inh -2.5.
`COc1ccc(S(=O)(=O)Nc2ccc3c(c2)N(C(C)=O)CCC3)cc1` gave Ecoli growth 0.71, UCH37 inh 1.6, B2AR ag -4, HNF4A DNA FP 2.7, A1 inh 0.8, Vif TR-FRET 0% and LANA-H2B inh 0.6.
Screening C/C(CC(=O)Nc1cc(Cl)ccc1Cl)=N\NC(N)=S returned B2AR ag 5, HNF4A DNA FP 4.6, A1 inh 2.9, Vif TR-FRET inconclusive and LANA-H2B inh 1.0.
For c1ccc(C2(CN3CCNC[C@H]3Cc3cccc4ccccc34)CC2)cc1 the results were UCH37 inh 0.2, B2AR ag 33, HNF4A DNA FP 1.4, A1 inh -1.1 and LANA-H2B inh -2.2.
Screening COc1cc(/C=N/n2cnnc2)ccc1OC(=O)c1ccco1 returned B2AR ag -6, HNF4A DNA FP -1.2, A1 inh 0.4, Vif TR-FRET 4% and LANA-H2B inh -0.3.
COc1ccc(C)cc1NC(=O)CSc1cccc[n+]1[O-] was read as Ecoli growth 0.7, UCH37 inh 3.5, B2AR ag -6, HNF4A DNA FP -5.4, A1 inh 0.4 and LANA-H2B inh 0.4.
`COc1cc(/C=N/NC(=O)c2ccncc2)c([N+](=O)[O-])cc1OC` gave B2AR ag 8, HNF4A DNA FP 4.9, A1 inh 0.3, Vif TR-FRET -6% and LANA-H2B inh 3.9.
For CCCCc1nc(C(N)=O)c2[nH]c(=O)n(-c3ccc(OC)cc3OC)c2n1 the results were Ecoli growth 0.74, UCH37 inh 5.6, B2AR ag 0, HNF4A DNA FP 2.2, A1 inh -1.0, Vif TR-FRET -10% and LANA-H2B inh 2.5.

Five entries drawn at random from those above:
For CCCCc1nc(C(N)=O)c2[nH]c(=O)n(-c3ccc(OC)cc3OC)c2n1 the results were Ecoli growth 0.74, UCH37 inh 5.6, B2AR ag 0, HNF4A DNA FP 2.2, A1 inh -1.0, Vif TR-FRET -10% and LANA-H2B inh 2.5.
Screening COc1cc(/C=N/n2cnnc2)ccc1OC(=O)c1ccco1 returned B2AR ag -6, HNF4A DNA FP -1.2, A1 inh 0.4, Vif TR-FRET 4% and LANA-H2B inh -0.3.
COc1ccc(C)cc1NC(=O)CSc1cccc[n+]1[O-] was read as Ecoli growth 0.7, UCH37 inh 3.5, B2AR ag -6, HNF4A DNA FP -5.4, A1 inh 0.4 and LANA-H2B inh 0.4.
Screening O=C(COC(=O)c1ccc(Cl)nc1)NCc1cccs1 returned Ecoli growth 0.62, UCH37 inh 0.0, B2AR ag -1, HNF4A DNA FP -0.6, A1 inh 1.6, Vif TR-FRET -1% and LANA-H2B inh -0.3.
`COc1ccc(S(=O)(=O)Nc2ccc3c(c2)N(C(C)=O)CCC3)cc1` gave Ecoli growth 0.71, UCH37 inh 1.6, B2AR ag -4, HNF4A DNA FP 2.7, A1 inh 0.8, Vif TR-FRET 0% and LANA-H2B inh 0.6.
